# Assay outcomes deposited in PubChem BioAssay by National Center for Advancing Translational Sciences (NCATS).
# VDR inh: blocks the human vitamin D receptor. P11473. VDR-SRC2-3 peptide fluorescence polarization, 2 h. Potency, µM, for the others: max response, negative = inhibition, usual class: inhibitors. 400,000 compounds, 0.93% hits. AID 504847; active = well fitted inhibition curve with a large enough effect; inconclusive = small, poorly fitted or top-dose-only effect, or another doubt; inactive = no such curve, though single readings can be large or run the other way; note: series mostly up to about 120 µM
# Target sequence (P11473 whole entry, looked up): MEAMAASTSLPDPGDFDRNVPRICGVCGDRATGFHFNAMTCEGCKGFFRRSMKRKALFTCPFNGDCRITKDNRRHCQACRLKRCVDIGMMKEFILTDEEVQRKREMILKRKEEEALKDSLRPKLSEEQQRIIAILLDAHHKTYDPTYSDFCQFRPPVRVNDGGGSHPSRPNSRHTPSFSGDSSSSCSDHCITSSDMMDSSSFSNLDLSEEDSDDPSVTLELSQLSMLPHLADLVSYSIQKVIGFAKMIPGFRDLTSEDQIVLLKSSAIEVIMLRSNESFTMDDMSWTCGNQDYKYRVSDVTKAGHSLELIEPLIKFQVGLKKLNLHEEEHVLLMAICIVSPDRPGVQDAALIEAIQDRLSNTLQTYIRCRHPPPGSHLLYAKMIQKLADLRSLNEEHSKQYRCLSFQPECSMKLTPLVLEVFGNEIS
#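 Reagent solutions, kept cold and dark, are dispensed first; compounds are then pinned in at 23 nl, plates briefly spun, and incubated 2 h at ambient temperature. Inhibition of VDR–SRC2-3 peptide binding is read by fluorescence polarization.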
# Numbers without * were called inactive; ? = inconclusive; & = joins results of further samples; [ ] = dose if it differs, or a comment. % is set by controls: 0 for no effect and ±100 for the full control effect; potency is the fitted concentration of half-maximal effect.
SMILES,VDR inh
Cc1cc(NC(=O)CSCC(=O)Nc2ccc(C)c(C)c2)no1,-4%
Cc1noc(C)c1S(=O)(=O)N(CC(=O)O)c1ccc2c(c1)OCO2,0%
Cc1ccc(C(=O)/C=C/Nc2ccc([N+](=O)[O-])cc2Br)cc1,8%
O=C1CN(S(=O)(=O)c2ccc(Cl)cc2C(F)(F)F)CCN1,-18%
Cc1ccc(C)c(N2CCN(C(=O)c3noc4c3CCCCC4)CC2)c1,16%
COc1ccc(-c2[nH]ncc2Oc2ccccc2OC)c(O)c1,12%
COc1ccc(/C(C)=N/NC(=O)c2ccccc2OCc2ccccc2)c(OC)c1,?
COc1ccc(-n2cnc3cc(NCc4ccco4)ccc32)cc1,6%
CC1CC(CC(=O)Nc2nc(-c3ccccc3)cs2)C(=O)O1 (configuration not stated),-1%
CC(C)Cc1c(O)nc(SCC(=O)N2CCCCCC2)[nH]c1=O,5%
COc1ccc(C2=NN(C(=O)CSc3nnc(C)n3C)C(c3ccco3)C2)cc1 (configuration not stated),13%
CCCCCOc1ccc(C(=O)NC(C(=O)O)C(C)C)cc1 (configuration not stated),-11%
Cc1cc(NS(=O)(=O)c2ccc(NC(=O)c3ccccc3F)cc2)nc(C)n1,11%
O=C1C[C@@H]2c3c(cccc3CN1Cc1ccc(F)cc1)C[C@@H](O)[C@H]2O,10%
CCn1cc(C2N3CC4(CC)CN2CC(CC)(C3)C4=O)c2ccccc21 (configuration not stated),-4%
COc1ccccc1CN1CC2(CCN(C(=O)c3cnccn3)CC2)C1,14%
Cc1ccc(C(=O)COC(=O)c2cccc([N+](=O)[O-])c2)s1,11%
CC(C)(C(=O)O)c1ccc(C(O)CCCN2CCC(C(O)(c3ccccc3)c3ccccc3)CC2)cc1 (configuration not stated),14%&-19%&-4%
Cc1ccccc1NC(=O)CN1CCOCC1,-5%
COc1ccc(C(NC(C)=O)c2c(O)ccc3ccccc23)cc1OC (configuration not stated),2%
O=S(=O)(Nc1ccccc1)c1cccc2nonc12,7%
COc1ccc(-c2cc(C)no2)cc1S(=O)(=O)N1CC(=O)Nc2ccccc21,-1%
Cc1ccc(S(=O)(=O)Nc2ccccc2N=Cc2c(F)c(F)c(F)c(F)c2F)cc1,-20%
COc1ccc(NC(=O)c2c(NC(=O)c3cccc(C)c3)sc3c2CCCC3)cc1,-20%
CCOC(=O)c1ccc(NC(=O)Cn2nnc3ccccc32)cc1,15%
COCCNC(=O)CCCn1c(=O)[nH]c2ccsc2c1=O,-18%
COc1ccc(N2CC(C(=O)Nc3nccs3)CC2=O)cc1 (configuration not stated),4%
O=C(Cn1ncc2c(=O)oc3ccccc3c21)N1CCC(N2CCCCC2)CC1,-13%
O=C(OCCOc1ccccc1)c1n[nH]c2ccccc12,0%
O=C(Nc1nc2ccccc2n1CCN1CCCCC1)C1CCCCC1,9%
CCOc1ccc(Cl)cc1C1=CC(=O)C[C@H](c2ccc(OC)cc2)C1,10%
O=C(CN1c2cccc3cccc(c23)S1(=O)=O)NCc1ccc(F)cc1,19%
CCCCN1C(=O)C2NN=C(C(=O)OC)C2C1=O (configuration not stated),-11%
Cc1ccc(SCCNC(=S)Nc2ccc(C)c(C)c2)cc1,-11%
CN(C(=O)CSc1nc2ccccc2n1CC(=O)N(C)c1ccc(F)cc1)c1ccccc1,9%
CC(=O)N1CCc2cc(S(=O)(=O)Nc3cccc(C(F)(F)F)c3)ccc21,22%
O=C(NN1C(=O)C2C3C=CC(O3)C2C1=O)c1cccc(Br)c1 (configuration not stated),16%
Cc1ccc(S(=O)(=O)N2CCCC2CO)cc1 (configuration not stated),8%
Cn1nnnc1SCC(=O)Nc1ccc(N2CCOCC2)cc1,1%
CCOc1ccccc1NC(=O)CN1CCC(C(=O)c2ccc(F)cc2)CC1,-3%

# Molecules from the list above that contain a nitro group on carbon:
SMILES,VDR inh
Cc1ccc(C(=O)/C=C/Nc2ccc([N+](=O)[O-])cc2Br)cc1,8%
Cc1ccc(C(=O)COC(=O)c2cccc([N+](=O)[O-])c2)s1,11%

# (listing goes on)
SMILES,VDR inh
Cc1cccc(C)c1OCc1cc(C(=O)NCC2CC2)no1,-1%
CCn1nc(C)c(NC(=O)c2cnn3c(C(F)F)cc(-c4ccccc4)nc23)c1C,-6%
O=C(NCCOc1ccccc1F)c1ccc2c(=O)n3c(nc2c1)CCC3,10%
CCCCCCn1c(N2CCN(c3ccccc3)CC2)nc2c1c(=O)n(C)c(=O)n2C,3%
CC(C)NC(=O)c1cccc(NC(=O)CC2SC(N3CCCCC3)=NC2=O)c1 (configuration not stated),-1%
CC(=N/O)/C(C)=N\NC(=O)c1ccccn1,-13%
Cc1cccc(C)c1NC(=O)CSc1nnc(NC(=O)CN2CCOCC2)s1,30%[activator]
Cc1nnc(SCC(=O)NCc2cccc(F)c2)c2nn(-c3ccccc3)c(C)c12,5%
CCOC(=O)C1(Cc2ccccc2C(F)(F)F)CCN(C2CCCC2)CC1,-20%
Cc1ccc(C(=O)COC(=O)CCc2ccc(S(=O)(=O)N3CCCCC3)cc2)cc1,2%

# Structures shown so far that contain a furan ring, fused or not (two):
SMILES,VDR inh
COc1ccc(-n2cnc3cc(NCc4ccco4)ccc32)cc1,6%
COc1ccc(C2=NN(C(=O)CSc3nnc(C)n3C)C(c3ccco3)C2)cc1 (configuration not stated),13%

# The listing continues:
SMILES,VDR inh
O=C(N/N=C/c1ccccc1O)C(=O)Nc1ccccn1,-7%
Cc1ccc(C2=NN(C(=O)CSc3nnnn3C)C(c3ccco3)C2)cc1 (configuration not stated),19%
CSc1ccc(CNCCN2CCOCC2)cc1,-5%
COc1cc(Cl)c(NC(=O)CN2C(=O)c3cccnc3Sc3ccccc32)c(OC)c1,-5%
Cc1ccccc1OCc1csc(N)n1,-8%
COc1cccc(N2C(=O)C(c3ccccc3)=C(c3nc4ccccc4s3)C2NC(C)=O)c1 (configuration not stated),-6%
CCCNC(=S)N1CCC(NC(=O)C23CC4CC(CC(C4)C2)C3)CC1,9%
COc1ccc([N+](=O)[O-])cc1NC(=O)CSCc1ccccc1,1%
CN(C)S(=O)(=O)c1cc(NC(=O)CN2CCN(c3ccc(O)cc3)CC2)ccc1Cl,-6%
OCC1(CCOc2ccccc2)CCN(Cc2ccc(OC(F)F)cc2)CC1,11%
O=C(O)CCc1ccc(-c2cccs2)o1,?
CCCCn1nnnc1NCc1ccc(OC)c(OC)c1,12%
C=CCN(CC=C)C(=O)CN1C(=O)c2ccccc2C1=O,20%
O=C(Nc1cccc2cccnc12)c1ccc(-c2cccc(Cl)c2)o1,10%
O=C(CCC(=O)Nc1ccccc1Cl)NNC(=O)c1ccccc1[N+](=O)[O-],5%
c1ccc(CSc2nnnn2-c2cccc3ccccc23)nc1,-8%
CCC(C)NC(=O)NCc1ccccc1F (configuration not stated),5%
COc1ccc(/C=C/C(=O)NCC(c2ccc(F)cc2)N2CCOCC2)cc1OC (configuration not stated),1%
COc1ccc(-n2nnnc2C2CCN(S(=O)(=O)c3ccc(NC(C)=O)cc3)CC2)cc1,7%
c1ccc(-n2cc(CN3CCCC3)c(-c3ccc4c(c3)OCO4)n2)cc1,16%

# In a second layout: entries from further up.
COc1ccc(-n2nnnc2C2CCN(S(=O)(=O)c3ccc(NC(C)=O)cc3)CC2)cc1
  VDR inh: 7%

CCC(C)NC(=O)NCc1ccccc1F (configuration not stated)
  VDR inh: 5%

c1ccc(-n2cc(CN3CCCC3)c(-c3ccc4c(c3)OCO4)n2)cc1
  VDR inh: 16%

COc1ccc(/C=C/C(=O)NCC(c2ccc(F)cc2)N2CCOCC2)cc1OC (configuration not stated)
  VDR inh: 1%

# Going on with the list:
SMILES,VDR inh
COc1ccccc1CNC(=O)CCc1c(C)nc2cc(-c3ccc(Cl)cc3)nn2c1C,-10%
CNC(=O)OC(C)CNS(=O)(=O)c1ccc(C)cc1 (configuration not stated),25%
CC(C)CN(CCCNC(=O)c1cc(-c2cccs2)nc2ccccc12)CC(C)C,-3%
CC(=O)Nc1ccc2c(c1)C(=O)c1ccccc1C2=O,-8%
COc1cccc(N2CCN(C(=O)CCCn3c(=O)[nH]c4ccc(Br)cc4c3=O)CC2)c1,2%
COCCNC(=O)/C(C#N)=C/c1cccc(NC(=O)c2ccccc2Cl)c1,-21%
CC(=O)Oc1ccc(C(=O)O)c(OC(C)=O)c1,-20%
CC[n+]1c(/C=C/c2ccc(OC)c(OC)c2)ccc2ccccc21,0%
O=C(CN1CCN(Cc2ccccc2)CC1)N/N=C\C=C/c1ccco1,-17%
COc1ccc(OC)c(C(=O)COC(=O)c2ccccc2O)c1,3%
NC(=O)c1nn(CC(=O)Nc2cccc(S(=O)(=O)N3CCCC3)c2)c(=O)c2ccccc12,-3%
CC(C)(C)c1ccc(OCCC(=O)OCC(=O)Nc2ccc(N3CCOCC3)cc2)cc1,-26%
O=C(COC(=O)c1cc(S(=O)(=O)N2CCCCC2)ccc1N1CCOCC1)c1ccc(Cl)cc1,-8%
Cc1nc(NN)nc(NCc2ccccc2)n1,-1%
O=C(CSc1nc2ccccc2o1)NC(=O)NCc1ccco1,-5%
CCN(CC)C(=O)c1sc2c(c1C)c(=O)n(Cc1ccccc1)c(=O)n2Cc1c(C)cc(C)cc1C,-7%
O=C(C[n+]1cc(-c2ccc(Cl)c(Cl)c2)n2c1CCC2)N1c2ccccc2Sc2ccccc21,-3%
COCCCNC(=O)C(=O)Nc1cc2c3c(c1)CCN3C(=O)CC2,3%
CC1CCN(CCNC(=O)c2ccc(NC(=O)C3CCCO3)cc2)CC1 (configuration not stated),5%
COC(CNC(=O)Cn1ncc2ccsc2c1=O)OC,5%
COc1ccc(-c2nnc(SCCC(=O)O)n2C)cc1OC,1%
O=C(Nc1ccc2c(c1)N(Cc1ccccc1)C(=O)c1ccccc1S2)NC1CC1,-9%
CC(=O)Nc1cccc(NC(=O)COc2ccc3c(c2)OCO3)c1,-7%
CCCC(C)C(=O)N(Cc1ccccc1)c1ccccn1 (configuration not stated),0%
O=C(CN1CCC(C(=O)c2ccc3c(c2)OCCO3)CC1)NC1CCCC1,-1%
CN(C)c1ccc(/C=N/NC(=O)c2ccc(-n3cnnn3)cc2)cc1,-1%
O=C(NCCO)C(=O)Nc1cc2c3c(c1)CCC(=O)N3CCC2,-8%
CC(CCc1ccccc1)NC(=O)CCC(=O)N1CCC(C(N)=O)CC1 (configuration not stated),-5%
COc1ccc(C)cc1NC(=O)C(c1ccccc1)N1CCN(CC(=O)N2CCCC2)CC1 (configuration not stated),-2%
O=C1c2cc([N+](=O)[O-])ccc2-c2cc(Br)c(N=C(NO)C(F)(F)F)cc21,-19%
COc1ccc(-c2ccc(CCC(=O)O)n2-c2ccc(Cl)cc2C)cc1,-15%
CCOC(=O)c1cnn(-c2ccccc2)c1-n1cccc1C(=O)C(=O)Nc1ccccc1C(F)(F)F,0%
COC(=O)c1sc(-c2ccccc2)cc1NC(=O)c1ccc(OC)cc1,-4%
CCc1ccccc1NC(=O)CSc1nc(C)c(C(=O)Nc2ccccc2)c(-c2ccc(Cl)cc2)c1C#N,5%
Cc1ccc(NC(=O)Cn2c(=O)n(CCc3ccccc3)c(=O)c3c4c(sc32)CCCC4)cc1C,0%
C[C@H]1CCC[C@@]2(O[C@H](CCO)C[C@@H](O)[C@@H]2O)O1,-7%
O=C(c1ccc(=O)[nH]c1)N1CCN(S(=O)(=O)c2ccccc2)CC1,2%
Cc1ccc(O)c(-c2n[nH]c3c2C(c2ccc(F)cc2)N(Cc2ccco2)C3=O)c1 (configuration not stated),-11%
CCn1c(SC(C)C)nnc1-c1cc(-c2ccccc2)sc1N,?
CCN(CC)CCN(C(=O)c1ccc(C(=O)c2ccccc2)cc1)c1nc2ccc(OC)cc2s1,11%
NNC(=O)c1sc(-c2ccccc2)cc1N,8%
COc1ccccc1-n1cnnc1SCC(=O)NC1CCCC1,-17%
Cc1cccc(NC(=O)C[n+]2ccccc2)c1,-20%
Cc1ccc(NC(=O)NCc2c(C)nn(C)c2C)cc1Cl,-6%
COc1ccc(NC(=O)c2ccco2)cc1NC(=O)C(C)(C)Oc1ccc(Cl)cc1,-6%
O=C(CSc1nnc(COc2ccc(F)cc2)o1)N1CCCCC1,6%
O=C(NN=Cc1ccc([N+](=O)[O-])cc1)c1ccncc1,2%
CC(=O)Nc1ccc(C(=O)OCC(=O)N(Cc2ccccc2)C(C)(C)C)cc1,5%
CC(C)(C)OC(=O)CNC(=O)c1nc[nH]c1C(=O)NCc1ccccc1,2%
CC(C)(C)C(=O)COC(=O)c1ccc(O)cc1,1%
# Following part
SMILES,VDR inh
CCN(CC)CCSc1nnc2c3ccccc3n(CCc3ccccc3)c2n1,-11%
Cc1nc2ccc(NC(=O)Cc3cccc(F)c3)cc2s1,-1%
Cn1nccc1NC(=O)c1nccnc1C(=O)O,-16%
O=C(NC1CCCCC1)C1CCN(C(=O)NCc2ccccc2)CC1,30%[activator]
COc1cccc(CNC(=O)CCCCCNC(=O)N2CCn3c2nc2ccccc23)c1,18%
O=C(CNC(=O)c1cccs1)NCC(=O)OCc1ccccc1Br,-6%
Cc1ccc(C(=O)C=CNNC(=O)c2ccccc2)cc1,-8%
O=C(NCCN1C(=O)S/C(=C\c2ccc(Cl)c(Cl)c2)C1=O)c1cnccn1,-9%
O=C(CCC1CCCCC1)NNC(=O)NC12CC3CC(CC(C3)C1)C2,9%

# An excerpt; the hit share may differ from the screen's.
